Screens: PubChem BioAssay, several laboratories
YopH PTP inh: YopH tyrosine phosphatase inhibitors, primary screen, biochemical, fluorescence Ex485/Em525. YopH tyrosine phosphatase [Yersinia enterocolitica]. inhibition, %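 (about 10 µM by stock and volumes)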. hit rate 0.16% among 140,000. AID 898, 2007;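 active = inhibition of 50% or more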;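 note: controls were vehicle for no effect and minimum signal wells for full effect; inactives centre near -20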
Arbovirus anti: antivirals against arbovirus infection, primary screen, cell-based, full library, 10K replicate subset; arbovirus infection cell-based antiviral screen; inhibition, % at 10 µM; hit rate 0.37% among 200,000; AID 1251, 2008;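 active = inhibition from about 30%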;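 note: bluetongue infection of BSR cells; cell survival read as ATP light after 72 h; 0% = infected wells without compound and 100% = uninfected wells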
RecA splice inh: Mtb RecA intein splicing inhibitors, primary screen, biochemical, fluorescence, HTS; Protein RecA (Mycobacterium tuberculosis (strain ATCC 25618 / H37Rv)), P9WHJ3; cell-free RecA intein splicing; inhibition, %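 (about 9 µM by stock and volumes)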; hit rate 0.75% among 290,000; AID 2221, 2009; in the data active = inhibition above about 30%;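 note: 0% = vehicle wells and 100% = reference inhibitor control wells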
Target sequence (P9WHJ3 whole entry, looked up, canonical isoform): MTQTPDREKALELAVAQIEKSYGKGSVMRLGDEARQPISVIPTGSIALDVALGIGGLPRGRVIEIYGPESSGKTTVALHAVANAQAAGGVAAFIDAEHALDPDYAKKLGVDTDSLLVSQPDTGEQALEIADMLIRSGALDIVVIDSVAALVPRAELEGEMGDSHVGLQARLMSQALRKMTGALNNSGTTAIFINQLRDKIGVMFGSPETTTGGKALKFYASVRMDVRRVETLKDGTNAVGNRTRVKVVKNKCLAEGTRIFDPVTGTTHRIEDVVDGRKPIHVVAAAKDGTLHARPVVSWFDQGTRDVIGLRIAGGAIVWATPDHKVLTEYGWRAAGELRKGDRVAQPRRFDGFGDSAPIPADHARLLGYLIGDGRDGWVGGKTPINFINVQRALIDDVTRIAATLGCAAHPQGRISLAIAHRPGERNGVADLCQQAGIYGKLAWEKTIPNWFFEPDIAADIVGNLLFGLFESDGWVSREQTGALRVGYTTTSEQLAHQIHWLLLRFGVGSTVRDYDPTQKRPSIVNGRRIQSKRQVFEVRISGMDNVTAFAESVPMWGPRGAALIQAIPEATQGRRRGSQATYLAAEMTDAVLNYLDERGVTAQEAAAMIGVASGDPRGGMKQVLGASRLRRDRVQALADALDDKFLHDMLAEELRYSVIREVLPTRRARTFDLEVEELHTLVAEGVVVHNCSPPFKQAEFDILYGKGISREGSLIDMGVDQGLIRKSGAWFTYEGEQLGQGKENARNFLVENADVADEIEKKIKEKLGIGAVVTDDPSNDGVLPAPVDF
Mtb bLac sens: beta-lactam sensitization of Mtb H37Rv, H37Rv | M. tuberculosis H37Rv growth with meropenem, percent inhibition; hits of this screen are not shown here | inhibition, % at 25 µM | hit rate 0.27% among 330,000 | AID 434955, 2010;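 active = about 74% or more and at least 40 points above the plate without the antibiotic, then above 30% in a dose series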;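 note: growth measured after seven days incubation then overnight dye step; 0% = bacteria only wells and 100% = bacteria with antibiotic; twin plates without the antibiotic show which effects depend on it; some results filed as inactive read as strong as hits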
Mtb growth: M. tuberculosis H37Rv growth inhibitors, H37Rv strain (AID 1626); inhibition, % at 10 µM; hits with a dose series show IC50 in µM; M. tuberculosis H37Rv growth inhibition; higher % means a stronger effect; hit rate 0.95% among 220,000;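 active = confirmed in a dose series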;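 note: bacteria incubated seven days before Alamar blue readout; 0% = bacteria only wells and 100% = bacteria with antibiotic wells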
Arbovirus anti repeat: second read-out of Arbovirus anti, no call of its own (marks repeat the call); inhibition, %; measured here: 10K subset replicate screen; many hits read low in the repeat;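 first of two repeat runs on a subset; 0% = infected and 100% = uninfected wells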
Numbers without * were called inactive. This is a subset (hit frequency here may not be typical).

Screening COC1CCCCC1NS(=O)(=O)c1ccccc1 (configuration not stated) returned YopH PTP inh -92, Arbovirus anti 6, Mtb bLac sens -7 and Mtb growth -4%.
`CCOC(=O)c1sc(=NC(=O)/C=C/c2ccccc2)n(C)c1C` gave Arbovirus anti -9, RecA splice inh -4.7, Mtb bLac sens -6 and Mtb growth 0%.
`CN(C)[C@@H]1C(=O)C(C(N)=O)=C(O)[C@@]2(O)C(=O)C3=C(O)c4c(O)ccc(Cl)c4[C@@](C)(O)[C@H]3C[C@@H]12` gave RecA splice inh -5.6 and Mtb bLac sens 8.
c1ccc(Cc2nnc3sc(-c4ccc5c(c4)OCCO5)nn23)cc1 was read as YopH PTP inh -51, Arbovirus anti 2, RecA splice inh 5.3, Mtb bLac sens -1, Mtb growth -2% and Arbovirus anti repeat -5.
For Cc1ccc2c(c1)C(c1ccccc1)N(C(=O)c1ccc(Br)cc1)CC(=O)N2 (configuration not stated) the results were RecA splice inh 14 and Mtb bLac sens 7.
`CN(Cc1ccccc1)C(=C(Cl)Cl)/C(=C1/NCCN1Cc1ccc(Cl)nc1)[N+](=O)[O-]` gave YopH PTP inh -10, Arbovirus anti 4, RecA splice inh 25, Mtb bLac sens -3 and Mtb growth -3%.
For Cc1c(C(=O)NCC2CCCO2)cccc1[N+](=O)[O-] (configuration not stated) the results were YopH PTP inh -18, Arbovirus anti -5, RecA splice inh 0.4, Mtb bLac sens 0 and Mtb growth 3%.
Screening CCCCn1c(CN2CCN(C(=O)OCC)CC2)nc2c1c(=O)[nH]c(=O)n2C returned YopH PTP inh -29, Arbovirus anti -1, RecA splice inh -0.5, Mtb bLac sens 0 and Mtb growth 2%.
Screening COC(=O)C1CN(S(=O)(=O)c2ccc(C)cc2)CCN1S(=O)(=O)c1ccc(C)cc1 (configuration not stated) returned YopH PTP inh -45, Arbovirus anti 4, RecA splice inh 1.4, Mtb bLac sens -3 and Mtb growth 2%.
For CCOc1ccc(-n2c(N)c(C(=O)NCC3CCCO3)sc2=S)cc1 (configuration not stated) the results were YopH PTP inh 19, Arbovirus anti 6, RecA splice inh -0.4, Mtb bLac sens -5 and Mtb growth -6%.
Screening Cc1ccccc1C(=O)Nc1ccc(S(=O)(=O)N2CCOCC2)cc1 returned RecA splice inh 5.7 and Mtb bLac sens -4.
`CC(C)(CNc1ccc([N+](=O)[O-])cc1Cl)N1CCOCC1` gave RecA splice inh 0.4 and Mtb bLac sens 4.
O=C(c1cnn(C(=O)c2cccc(S(=O)(=O)N3CCOCC3)c2)c1)c1ccccc1O was read as Arbovirus anti 7, RecA splice inh 0.7, Mtb bLac sens 2 and Mtb growth 7%.
OCCCNc1cc(-c2ccnc(Nc3cccc(Cl)c3)n2)ccn1 was read as RecA splice inh -2.2, Mtb bLac sens 96 and Mtb growth 8%.
Screening COc1cc(-c2nnc(SCC(=O)O)n2-c2ccccc2)cc(OC)c1OC returned RecA splice inh -3.8 and Mtb bLac sens -5.
COc1cc(C(CC(=O)N2CCN(c3ccccc3)CC2)c2c(OC)cc(OC)c3ccc(=O)oc23)cc(OC)c1OC (configuration not stated) was read as RecA splice inh 3.3, Mtb bLac sens 4 and Mtb growth -7%.
Screening CC1CC(C)CN(CCCCOc2ccc([N+](=O)[O-])cc2)C1 (configuration not stated) returned YopH PTP inh -19, Arbovirus anti -13, RecA splice inh -0.7, Mtb bLac sens -5 and Mtb growth -4%.
O=C(CN(C(=O)Cn1nnc(-c2ccccc2F)n1)c1cccc2c1CCCC2)NCc1ccccc1 was read as YopH PTP inh -18, Arbovirus anti -4, RecA splice inh 3.1, Mtb bLac sens -4 and Mtb growth 1%.
`CC1(C)Cc2c(c(-c3ccccc3)nc3sc4c(=O)[nH]c(=S)[nH]c4c23)CO1` gave RecA splice inh 0.1, Mtb bLac sens -6 and Mtb growth -3%.
For CCCCCn1c(C(Cc2ccccc2)NC(C)=O)nc2ccccc21 (configuration not stated) the results were YopH PTP inh -43, Arbovirus anti -20, RecA splice inh 6.1, Mtb bLac sens -1 and Mtb growth 5%.
Cc1ccc(NS(=O)(=O)c2coc(C(N)=O)c2)cc1F was read as RecA splice inh -0.4 and Mtb bLac sens -5.
Cc1cccc(NC(=O)c2cc3c(=O)n4ccccc4nc3n(CC(C)C)c2=N)c1 was read as Arbovirus anti -1, RecA splice inh 1.2, Mtb bLac sens -4 and Mtb growth 3%.
`CC1(C)N([O-])C2=C(CCCC2)[N+]1=O` gave Arbovirus anti -3, RecA splice inh 1.6 and Mtb growth -2%.
Screening CCC1NC(=O)c2ccccc2N1c1cccc(Cl)c1 (configuration not stated) returned RecA splice inh 2.0 and Mtb bLac sens -4.
`CC(=O)Nc1ccc(NCc2ccc(C)s2)cc1` gave RecA splice inh -2.9 and Mtb bLac sens -1.
For COCCCNC(=O)CN(c1cc([N+](=O)[O-])ccc1OC)S(C)(=O)=O the results were Arbovirus anti 2, RecA splice inh 2.5, Mtb bLac sens 4 and Mtb growth -2%.
COc1ccc(NC(=O)CSCC(=O)Nc2ccccc2N2CCCCC2)cc1 was read as RecA splice inh 3.2 and Mtb bLac sens -13.
`O=C(/C=C/c1ccco1)NC(=S)Nc1cc(C(F)(F)F)ccc1N1CCOCC1` gave YopH PTP inh -10, Arbovirus anti 4, RecA splice inh 4.4, Mtb bLac sens 6 and Mtb growth 7%.
For O=C(NC1CC2CCCC(C1)N2Cc1ccccc1)c1cccc(Cl)c1 (configuration not stated) the results were RecA splice inh -0.6 and Mtb bLac sens 4.
Screening Cc1ccc(C(=O)Nc2c(C)n(C)n(-c3ccccc3)c2=O)cc1 returned Arbovirus anti 10, RecA splice inh -1.8, Mtb bLac sens 9 and Mtb growth -9%.
O=C(NCc1cccnc1)C1CCCCN1S(=O)(=O)c1ccc(F)cc1 (configuration not stated) was read as YopH PTP inh -35, Arbovirus anti 6, RecA splice inh -0.8, Mtb bLac sens 3 and Mtb growth -5%.
For O=C(NCCC1=CCCCC1)c1ccc(=O)oc1 the results were YopH PTP inh -40, Arbovirus anti -1, RecA splice inh -0.5, Mtb bLac sens 9 and Mtb growth -6%.
Screening CCN(CC)C(=O)C1=C(C)Nc2nnnn2C1c1cccnc1 (configuration not stated) returned YopH PTP inh 33, Arbovirus anti 0, RecA splice inh 0.9, Mtb bLac sens -8 and Mtb growth -8%.
`COc1ccc(N2CCN(C(c3ccc4ncccc4c3)c3nnnn3C(C)C)CC2)cc1` (configuration not stated) gave RecA splice inh -3.2, Mtb bLac sens -5 and Mtb growth 1%.
`C=CCN1C(=O)CSc2ccc(C(=O)NCc3cccs3)cc21` gave Arbovirus anti 21, RecA splice inh -7.1, Mtb bLac sens -5 and Mtb growth 3%.
For O=C(NCCCn1ccnc1)C(=O)NCC1OCCN1S(=O)(=O)c1ccc2c(c1)OCCO2 (configuration not stated) the results were RecA splice inh -1.2, Mtb bLac sens -12 and Mtb growth -5%.
For Cc1cccc(NC(=O)CNC(=O)c2sc3ccccc3c2Cl)n1 the results were RecA splice inh -0.6 and Mtb bLac sens 0.
For COc1ccc(NC(=O)c2oc3ccc(S(=O)(=O)N4CCC5(CC4)OCCO5)cc3c2C)cc1 the results were YopH PTP inh 17, Arbovirus anti -6, RecA splice inh -1.9, Mtb bLac sens 100 and Mtb growth 33%.
For CC(C)c1nc(N2CCOCC2)c(C#N)c2c1CCC2 the results were YopH PTP inh -56, Arbovirus anti 13, RecA splice inh -1.3, Mtb bLac sens 13 and Mtb growth -4%.
`Cc1ccc(NS(=O)(=O)c2ccc3c(c2)CC(=O)N3)cc1C` gave RecA splice inh 5.3 and Mtb bLac sens 2.

4 entries already listed, ordered by number of heavy atoms, smallest number first:
`CC(=O)Nc1ccc(NCc2ccc(C)s2)cc1` gave RecA splice inh -2.9 and Mtb bLac sens -1.
`Cc1ccc(NS(=O)(=O)c2ccc3c(c2)CC(=O)N3)cc1C` gave RecA splice inh 5.3 and Mtb bLac sens 2.
O=C(NCc1cccnc1)C1CCCCN1S(=O)(=O)c1ccc(F)cc1 (configuration not stated) was read as YopH PTP inh -35, Arbovirus anti 6, RecA splice inh -0.8, Mtb bLac sens 3 and Mtb growth -5%.
Cc1cccc(NC(=O)c2cc3c(=O)n4ccccc4nc3n(CC(C)C)c2=N)c1 was read as Arbovirus anti -1, RecA splice inh 1.2, Mtb bLac sens -4 and Mtb growth 3%.

Other entries
Screening COc1cc(OC)cc(C(=O)N[C@H](C(=O)OCC(=O)Nc2ccc(F)c(F)c2F)C(C)C)c1 returned Arbovirus anti 0, RecA splice inh 5.4, Mtb bLac sens -13 and Mtb growth 0%.
Screening O=C(O)c1ccc(CSc2nnc(-c3ccccc3Br)o2)cc1 returned RecA splice inh -1.6 and Mtb bLac sens -4.
Screening O=C(O)CC(CC(=O)Nc1ccc(-c2ccccc2)cc1)c1ccccc1 (configuration not stated) returned RecA splice inh 0.4 and Mtb bLac sens 0.
`O=C(Cc1cccs1)N/N=C/C=C\c1ccco1` gave YopH PTP inh -17, Arbovirus anti -3, RecA splice inh 4.1, Mtb bLac sens 4 and Mtb growth 4%.
For CCOC(=O)c1cc(C#N)c(N2CCCNCC2)nc1C(F)(F)F the results were RecA splice inh 1.5 and Mtb bLac sens -13.
`Cc1ccc(NC(=O)C2CCN(S(=O)(=O)c3c(C)noc3C)CC2)cc1C` gave Arbovirus anti -9, RecA splice inh -1.5, Mtb bLac sens 3 and Mtb growth -3%.
`CCOc1ccccc1NC(=O)C1CCC(=O)N1S(=O)(=O)c1ccc(C)cc1` (configuration not stated) gave RecA splice inh 1.4 and Mtb bLac sens 0.
`Cc1cc2n(n1)C(c1ccccc1)Nc1ccccc1-2` (configuration not stated) gave YopH PTP inh 4, Arbovirus anti -5, RecA splice inh 2.5, Mtb bLac sens -4 and Mtb growth 0%.
CCCc1cc(=O)[nH]c(SCC(=O)N2CCN(c3ccc(F)cc3)CC2)n1 was read as YopH PTP inh 16, Arbovirus anti 2, RecA splice inh -2.3, Mtb bLac sens -9 and Mtb growth -8%.
For O=C1CCCN1CCCNC(=S)Nc1ccccc1 the results were Mtb bLac sens -3 and Mtb growth 6%.
Cc1ccc(-c2nc3ccccc3nc2-c2ccccc2)cc1 was read as RecA splice inh 14 and Mtb bLac sens -15.
Screening CC1(C)CC(=O)c2cnn(-c3nc4ccccc4[nH]3)c2C1 returned YopH PTP inh -38, Arbovirus anti 0, RecA splice inh 3.1, Mtb bLac sens -3 and Mtb growth 2%.
Screening O=C(CNC(=O)c1ccc(F)cc1)N/N=C/c1ccc(O)c([N+](=O)[O-])c1 returned YopH PTP inh -32, Arbovirus anti -2, RecA splice inh 0.9, Mtb bLac sens 1 and Mtb growth 0%.
CN(CC(=O)NCCC1=CCCCC1)S(=O)(=O)c1ccc2c(c1)CCC(=O)N2 was read as YopH PTP inh -8, Arbovirus anti 7, RecA splice inh -0.3, Mtb bLac sens 1 and Mtb growth -2%.
Screening O=C(N/N=C\c1ccc(CNS(=O)(=O)c2ccc(Cl)cc2)o1)C(=O)Nc1ccc(Oc2ccccc2)cc1 returned YopH PTP inh -10, Arbovirus anti -28, Mtb bLac sens 1 and Mtb growth 1%.
Cc1cccc(NC(=O)CNC(=O)COc2cc(F)ccc2[N+](=O)[O-])c1C was read as Arbovirus anti -3, RecA splice inh -2.2, Mtb bLac sens 1 and Mtb growth -5%.
Screening C=CCC1(CC=C)CCCN1C(=O)CC1C(=O)NCCN1Cc1cccc(OC)c1 (configuration not stated) returned Arbovirus anti 5, RecA splice inh 8.6, Mtb bLac sens 2 and Mtb growth -2%.
Screening Cc1cn(S(=O)(=O)c2ccc(Br)cc2)cn1 returned YopH PTP inh -12, Arbovirus anti 6, RecA splice inh -2.4, Mtb bLac sens 3 and Mtb growth -5%.
`O=S(=O)(NC1CCCCC1N1CCCCC1)c1ccc(Cl)cc1` (configuration not stated) gave RecA splice inh 0.0 and Mtb bLac sens -2.
For CC[N+](C)(CC)CCC(c1ccccc1)C1CCCCC1 (configuration not stated) the results were RecA splice inh 0.1 and Mtb bLac sens -2.
`CC1(C)Cc2ccccc2-c2nnc(-c3cccc(O)c3)n21` gave YopH PTP inh -34, Arbovirus anti -2, RecA splice inh -14, Mtb bLac sens -5 and Mtb growth -6%.
For Cc1ccc(NS(=O)(=O)c2ccc(Cl)c(C(=O)Nc3cccc(C(=O)O)c3)c2)cc1 the results were RecA splice inh 3.0 and Mtb bLac sens 1.
For N/C(=N\S(=O)(=O)c1cccs1)c1ccccc1Cl the results were RecA splice inh -3.0 and Mtb bLac sens -7.
CCCCn1c(CN2CCN(c3cccc(Cl)c3)CC2)nc2c1c(=O)[nH]c(=O)n2C was read as YopH PTP inh 25, Arbovirus anti -15, RecA splice inh 1.9, Mtb bLac sens 5 and Mtb growth -1%.
